Bead autofluor: compound fluorescence in toxin protease inhibitor counterscreen; compound autofluorescence counterscreen, microsphere flow cytometry; active compounds read high; fluorescence intensity (concentration not given with the values); 360,000 tested, 3.1% active; AID 624483;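 active = at least 3 SD above the mean of all compounds, about 16000 in these data; inconclusive = too few beads counted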;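 note: 100 nL of 1 mM stock went into each well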
PrP 5UTR inh: suppresses PrP 5' UTR mRNA reporter expression; 340,000 tested, 0.35% active; inhibition, % (no concentration beside the values); cell-based PrP 5' UTR mRNA reporter, plate reader;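 active = every replicate at 50% or more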;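 note: 0 = median of the neutral control wells; tested in H4 reporter cells; numbers are from one replicate; inactives centre near -14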
Mtb hypoxia rep: inhibitors of hypoxia-regulated fluorescent reporter in Mycobacterium tuberculosis. M. tuberculosis hypoxia-regulated fluorescent reporter, fluorescence. fluorescence inhibition, % (no concentration beside the values). 300,000 tested, 0.1% active. AID 1159583;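 active = 35 to 45% if threefold the growth effect, above 45% if 1.5-fold the growth effect; inactive = the rest, general growth blockers included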;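 note: wells of about 50 µL received 100 nL stock; 0% = vehicle wells and 100% = reference inhibitor wells; whole bacteria with a GFP reporter of the hypoxia response; strong numbers were not always called active; many hits fall short of the cut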
BJeLR lethal: kills HRASV12-expressing BJeLR cells; 300,000 tested, 0.17% active; inhibition, % (test concentration not listed); BJeLR (HRASV12) viability, CellTiter-Glo ATP luminescence, 48 h; reference of the scale not given here; AID 1554;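 active = replicate mean above 50%; inconclusive = above 50% but judged a plate artefact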;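 note: 50 nL library stock added to about 25 µL; numbers are from one replicate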
RN4220 kill: S. aureus RN4220 growth inhibition; OD600, 16 h; 330,000 tested, 0.33% active; inhibition, % (no concentration beside the values); AID 1259311;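 active = z-score of -3 or lower and OD600 up to 0.18 on both plates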;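 note: plate controls were untreated cells for no effect and reference antibiotic for full effect; stock transfer was 100 nL into about 80 µL; one replicate is shown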
Sa ugtP lethal: kills S. aureus RN4220 lacking UgtP; S. aureus RN4220 ugtP deletion, OD600 growth, 16 h; some inactives read as strong as hits; growth inhibition, % (concentration not given with the values); 330,000 tested, 0.54% active; AID 1259309;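 active = z-score under -3 and OD600 up to 0.15 on both plates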;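 note: plate controls were untreated wells for no effect and antibiotic for full effect; wells of about 80 µL received 100 nL stock; the first replicate is given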
Mtb hypoxia rep growth: recorded beside Mtb hypoxia rep, whose call it bears; growth inhibition, %; measured here: M. tuberculosis growth (absorbance);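 0% = vehicle and 100% = reference antibiotic; read after six days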
Starred values were filed as active, the others as inactive; ? = inconclusive; / = no result given.

(1) O=C(COC(=O)c1cc(F)c(F)cc1Cl)NC1CC1
(2) COc1ccc(C2(O)CN(c3ccccc3)C3=[N+]2CCS3)cc1OC (stereo unspecified)
(3) CC(C)CCOc1ccc(CO[C@@H]2[C@H]3OC(C)(C)O[C@H]3O[C@@H]2C(O)CO)cc1 (stereo partly specified)
(4) CCN1CCN(CNC(=O)c2cnccn2)CC1
(5) Cn1ncc2c(=S)nc(Cl)[nH]c21
(6) Cc1ccsc1/C=C1/C(=O)NN(c2ccccc2)C1=O
(7) CC(=O)N1CCc2c(sc3c2c(=O)n(Cc2ccccc2)c(=O)n3CC(=O)NCC2CCCO2)C1 (stereo unspecified)
(8) O=C(OCC#CCSc1nnc(-c2cccc3ccccc23)o1)c1ccc(Br)cc1
Compound	1	2	3	4	5	6	7	8
BJeLR lethal	-6	0	-18	-1	/	-1	21	/
Bead autofluor	2346	4146	3899	2347	2884	2578	6077	3587
PrP 5UTR inh	-25	-14	-21	0	0	-23	-27	-16
RN4220 kill	5.7	5.7	2.3	4.4	2.5	5.4	-8.1	5.5
Mtb hypoxia rep	11	-8	5	7	4	0	8	/
Sa ugtP lethal	5	1	5	-1	2	-3	2	20
Mtb hypoxia rep growth	19	4	-7	-3	2	3	9	/

(9) Cc1cccc(NC(=O)c2nc[nH]c2C(=O)N(C)Cc2ccccc2)c1
(10) CCc1nc2oc3ccccc3c(=O)c2c(=O)n1CCOC
(11) CCCCc1nc(SCc2ccc([N+](=O)[O-])cc2)n[nH]1
(12) Cc1noc(C)c1COC(=O)Cc1ccc(Cl)cc1
(13) CN=c1scc(-c2ccccc2F)n1/N=C(\C)c1cccnc1
(14) O=C(OCC(=O)N1CCN(C(=O)c2ccco2)CC1)c1c(Cl)cccc1Cl
(15) NC(=O)CC[C@H](NC(=O)OCc1ccccc1)C(=O)OCc1ccc(Cl)cc1
(16) COc1ccccc1C1(CC(=O)Nc2nccs2)CCOC(C(C)C)C1 (stereo unspecified)
Compound	9	10	11	12	13	14	15	16
BJeLR lethal	/	-10	-1	2	9	/	1	5
Bead autofluor	3424	6815	5853	/	2094	3950	1987	16124
PrP 5UTR inh	-10	-5	-20	-19	-65	-17	-7	-48
RN4220 kill	3.1	3.7	4.4	0.4	/	-0.9	17	3.9
Mtb hypoxia rep	-1	6	1	/	/	-5	3	6
Sa ugtP lethal	4	11	5	0	/	1	27	-5
Mtb hypoxia rep growth	4	8	8	/	/	-4	-3	1

(17) COc1ccc(N(C)C(=O)c2ccc3c(Cl)c4c(nc3c2)CCCC4)c(OC)c1
(18) O=C(Nc1ccccc1N1CCOCC1)C1=COCCO1
(19) CCCN1C2=NCCCN2c2ccccc21
(20) COc1ccc2[nH]c(-c3ccc(C)cc3)cc(=O)c2c1
(21) CCN(Cc1ccc2c(c1)OCO2)C(=O)CSc1ncnc2sccc12
(22) O=C(CSc1ccc(C(F)(F)F)cn1)Nc1ccccc1
(23) COc1cccc(Oc2ccc(S(=O)(=O)N3CCOCC3)cc2[N+](=O)[O-])c1
(24) CC(Sc1nnc(N)s1)C(=O)Nc1ccc2c(c1)OCCO2 (stereo unspecified)
Compound	17	18	19	20	21	22	23	24
BJeLR lethal	6	-1	2	8	/	-7	/	-8
Bead autofluor	5317	6800	10643	3038	7170	5297	5587	4187
PrP 5UTR inh	-10	-18	-11	45	-3	-46	-26	-18
RN4220 kill	1.3	5.6	4.5	2.4	4.4	0.4	0.3	5.8
Mtb hypoxia rep	-6	13	6	6	4	-16	15	4
Sa ugtP lethal	-18	3	2	0	3	-4	9	5
Mtb hypoxia rep growth	-2	1	12	-2	-3	-14	5	-13

Single records (already shown):
COc1ccc2[nH]c(-c3ccc(C)cc3)cc(=O)c2c1 is entered as BJeLR lethal = 8; Bead autofluor = 3038; PrP 5UTR inh = 45; RN4220 kill = 2.4; Mtb hypoxia rep = 6; Sa ugtP lethal = 0; Mtb hypoxia rep growth = -2
CCN(Cc1ccc2c(c1)OCO2)C(=O)CSc1ncnc2sccc12 is entered as BJeLR lethal = /; Bead autofluor = 7170; PrP 5UTR inh = -3; RN4220 kill = 4.4; Mtb hypoxia rep = 4; Sa ugtP lethal = 3; Mtb hypoxia rep growth = -3

Further records.
(25) Cc1ccccc1C(O)(Cc1ccccc1)C1CN2CCC1CC2 (stereo unspecified)
(26) C[C@]1(C(=O)NCCc2c[nH]c3ccccc23)C=C[C@@H](Cc2ccccc2)N1C(=O)c1ccccc1
(27) CC(C)CC(=O)c1c[nH]c(C(=O)NCCc2ccccn2)c1
(28) CCN(Cc1ccccc1)C(=O)CCc1nnc(CCCc2ccccc2)o1
(29) COc1ccccc1-n1c(CNC(=O)c2ccco2)nnc1SCC(=O)Nc1nccs1
(30) CCc1cc(CNC(=O)C2CCC(=O)N(Cc3ccc(Cl)cc3)C2)on1 (stereo unspecified)
(31) Cc1ccnc(NS(=O)(=O)c2ccc(N)cc2)n1
(32) N#CCCn1c(Cl)nc2ccccc21
Compound	25	26	27	28	29	30	31	32
BJeLR lethal	-1	1	-8	-2	-8	0	11	1
Bead autofluor	3187	4071	15764	4349	4548	5468	5738	8494
PrP 5UTR inh	-11	34	-15	15	4	-9	-2	-3
RN4220 kill	2.5	4.3	4.4	0.2	3.2	1.6	4.8	2.4
Mtb hypoxia rep	-4	5	0	4	2	3	5	-2
Sa ugtP lethal	-9	-16	10	10	0	-1	-1	0
Mtb hypoxia rep growth	-8	-4	3	3	9	-14	6	9

(33) COCCNC(=O)/C(C#N)=C/c1c(N2CCN(c3ccccc3)CC2)nc2c(C)cccn2c1=O
(34) NNC(=S)Nc1ccc(Cl)cc1
(35) CC(=O)Nc1ccc(N2CCC(C)CC2)c([N+](=O)[O-])c1
(36) C=CCNS(=O)(=O)c1cc2c3c(c1)CCN3C(=O)CC2
(37) Cc1ccc(NC(=S)N(CCN2CCOCC2)Cc2ccccc2F)cc1Cl
(38) COc1ccc(OCCSc2nnc(-c3ccoc3C)n2C)cc1
(39) CCCN1Cc2cccc(C(=O)NC(CC(=O)OCC)c3ccc(OCC)c(OC)c3)c2C1=O (stereo unspecified)
(40) COc1ccc(-c2cc(NCCc3ccncc3)n3ncnc3n2)cc1
Compound	33	34	35	36	37	38	39	40
BJeLR lethal	-5	2	-3	9	-10	-3	-2	6
Bead autofluor	3935	3322	2625	5716	4000	2192	2213	2307
PrP 5UTR inh	-1	-16	-6	-3	-9	0	2	-8
RN4220 kill	1.8	11	8.2	1.3	6.0	5.6	0.6	9.0
Mtb hypoxia rep	-5	16	-6	8	2	/	-9	/
Sa ugtP lethal	6	-68	13	-1	2	7	7	4
Mtb hypoxia rep growth	8	-4	15	-3	6	/	7	/

(41) CC(C)C(NC(=O)C1CCC(C(C)(C)C)CC1)C(=O)NCCc1ccc(S(N)(=O)=O)cc1 (stereo unspecified)
(42) O=C(CN1C(=O)S/C(=C\C=C\c2ccccc2)C1=O)N1CCOCC1
(43) Cc1nc([N+](=O)[O-])c(NCCCO)n1Cc1ccccc1
(44) O=C(NC(Cc1ccccc1)C(=O)O)/C(=C/c1ccc(Cl)cc1)NC(=O)c1ccco1 (stereo unspecified)
(45) CC1CCN(C(=O)C2COc3ccccc3O2)CC1 (stereo unspecified)
(46) CCCN(Cc1nnc(-c2cccs2)o1)C(=O)c1cccc(S(=O)(=O)N2CCOCC2)c1
(47) CC(=O)Nc1ccc(C(=O)N2CCN(C(=O)c3ccco3)CC2)cc1
(48) O=[N+]([O-])c1ccc(N2CCN(CC(O)COc3ccccc3)CC2)cc1 (stereo unspecified)
Compound	41	42	43	44	45	46	47	48
BJeLR lethal	-8	11	-5	-8	/	/	-8	6
Bead autofluor	4268	3303	2486	5043	8617	?	12361	2090
PrP 5UTR inh	-31	/	-15	-10	-19	-15	-25	12
RN4220 kill	4.5	2.9	3.9	1.2	1.5	1.4	1.4	1.7
Mtb hypoxia rep	12	5	-8	-4	/	9	6	0
Sa ugtP lethal	3	1	12	6	8	0	0	12
Mtb hypoxia rep growth	7	5	0	-11	/	7	9	-1

3 of these compounds, set out differently:
| no. | Molecule | BJeLR lethal | Bead autofluor | PrP 5UTR inh | RN4220 kill | Mtb hypoxia rep | Sa ugtP lethal | Mtb hypoxia rep growth |
| --- | --- | --- | --- | --- | --- | --- | --- | --- |
| 46 | CCCN(Cc1nnc(-c2cccs2)o1)C(=O)c1cccc(S(=O)(=O)N2CCOCC2)c1 | / | ? | -15 | 1.4 | 9 | 0 | 7 |
| 47 | CC(=O)Nc1ccc(C(=O)N2CCN(C(=O)c3ccco3)CC2)cc1 | -8 | 12361 | -25 | 1.4 | 6 | 0 | 9 |
| 48 | O=[N+]([O-])c1ccc(N2CCN(CC(O)COc3ccccc3)CC2)cc1 (stereo unspecified) | 6 | 2090 | 12 | 1.7 | 0 | 12 | -1 |

(continued)
(49) COc1ccc(C(=O)N=c2c(C#N)cc3c(=O)n4cccc(C)c4nc3n2Cc2ccco2)cc1
(50) Cc1ccc(/C=C2\Oc3c(ccc(O)c3CN3CCN(C)CC3)C2=O)cc1
(51) C[C@H]1CN=C(Nc2ccccc2)N1CC1CCCCC1
(52) COc1cc(C(=O)Nc2ncccc2C)ccc1OCC(=O)N1CCOCC1
(53) Clc1ccc(CN2CCC(c3ccccc3)CC2)cc1
(54) O=C(O)c1cccc2cc(-c3ccccc3)oc(=O)c12
(55) Cc1cc(C)c2nc(-n3nc(C)cc3N)cc(C)c2c1
(56) CCCCN(C)CCNC(=O)CCn1nc(-c2ccc(C)cc2)ccc1=O
Compound	49	50	51	52	53	54	55	56
BJeLR lethal	0	0	3	/	3	-11	-5	-1
Bead autofluor	/	2162	4007	2927	2948	4150	4021	3807
PrP 5UTR inh	/	2	-15	-5	-17	-15	-81	-6
RN4220 kill	3.0	5.4	/	3.8	0.7	0.5	10	-0.6
Mtb hypoxia rep	5	3	/	2	6	-13	8	7
Sa ugtP lethal	-4	-4	/	2	4	-2	2	4
Mtb hypoxia rep growth	4	1	/	-7	3	2	1	3

A draw from above in order of length of the SMILES, rising:
(34) NNC(=S)Nc1ccc(Cl)cc1
(45) CC1CCN(C(=O)C2COc3ccccc3O2)CC1 (stereo unspecified)
(54) O=C(O)c1cccc2cc(-c3ccccc3)oc(=O)c12
(47) CC(=O)Nc1ccc(C(=O)N2CCN(C(=O)c3ccco3)CC2)cc1
(14) O=C(OCC(=O)N1CCN(C(=O)c2ccco2)CC1)c1c(Cl)cccc1Cl
Compound	34	45	54	47	14
BJeLR lethal	2	/	-11	-8	/
Bead autofluor	3322	8617	4150	12361	3950
PrP 5UTR inh	-16	-19	-15	-25	-17
RN4220 kill	11	1.5	0.5	1.4	-0.9
Mtb hypoxia rep	16	/	-13	6	-5
Sa ugtP lethal	-68	8	-2	0	1
Mtb hypoxia rep growth	-4	/	2	9	-4

Next part
(57) CC(C)c1ccc(C2/C(=C(\O)c3ccc4c(c3)OCCO4)C(=O)C(=O)N2CCN2CCOCC2)cc1 (stereo unspecified)
(58) Cc1ccc(OCC(=O)NC2CCSc3ccccc32)cc1 (stereo unspecified)
(59) O=C(CCCn1c(=S)[nH]c2cc3c(cc2c1=O)OCO3)N1CCN(c2ccccc2)CC1
(60) Cc1cc(C)c(NC(=O)CCCSc2nnc(N)s2)c(C)c1
(61) CCC(C(=O)OCC(=O)Nc1c(Cl)cc(Cl)cc1Cl)c1ccccc1 (stereo unspecified)
(62) O=C1CC(Cc2ccccc2)C(=O)N1CCCn1ccnc1 (stereo unspecified)
(63) CCOC(=O)CNC(=O)c1ccc(C)cc1
(64) Cc1ccc(O)c(-c2cc(C(F)(F)F)[nH]n2)c1
(65) CO/N=C(\C)C(Cc1ccc(Cl)nc1)Cc1ccc(Cl)nc1
(66) CCOC1OC(C(=O)N2CCN(C)CC2)=CC(c2ccc3c(c2)OCO3)C1CCCO (stereo unspecified)
(67) O=C(C=Cc1ccco1)c1ccco1
Compound	57	58	59	60	61	62	63	64	65	66	67
BJeLR lethal	-3	-9	-1	-3	-4	-4	-3	-2	-13	/	/
Bead autofluor	4127	/	6105	4304	2626	/	6073	21889*	4092	/	4193
PrP 5UTR inh	4	-7	-11	-34	-10	/	1	-7	-5	/	-9
RN4220 kill	7.2	17	2.5	0.5	-4.5	0.9	-4.0	-1.5	/	4.3	3.4
Mtb hypoxia rep	-3	-4	3	8	-7	0	/	-14	/	11	7
Sa ugtP lethal	12	22	2	9	-18	1	-1	-18	/	-7	1
Mtb hypoxia rep growth	-6	-2	9	12	-3	11	/	0	/	3	5
